Rango-impB inh: qHTS Assay for Inhibitors of Rango (Ran-regulated importin-beta cargo) - Importin beta complex formation | Importin subunit beta-1 (Homo sapiens), Q14974 | Rango CFP/YFP FRET sensor + importin beta, 45 min | Potency, µM (titrated, usually from 92.2 µM), inactives show top-dose inhibition of complex formation | 340,000 tested, 0.031% active | AID 540263, 2011; active = rising FRET ratio curve, often small or poorly fitted; inconclusive = mostly compound fluorescence or quenching in the first reads; inactive = flat curves in all reads;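 also: potency is read from the fitted curve at half-maximal effect; 0% = DMSO wells and 100% = buffer wells lacking importin beta; nearly all actives have a fitted effect of over 15% in size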
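FRET biosensor Rango (snurportin 1 IBB between N-terminal EYFP and C-terminal Cerulean), 50 nM in PBS/1 mM DTT/0.02% Tween-20/0.1% BSA, preincubated 5 min RT with compound; 0.125 microM importin beta added, 45 min RT, CFP/YFP FRET ratio read.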
miR-21 reporter: qHTS Assay for Modulators of miRNAs and/orActivators of miR-21; HeLa miR-21 FLuc reporter, luciferase, 48 h; Potency, µM (series often up to 38.3 µM), for inactives: at the highest dose reporter change, positive = more light; 340,000 tested, under 10 active; AID 2288, 2010; active = well fitted rising curve with a large enough effect; inconclusive = small, poorly fitted or top-dose-only effect; inactive = no such curve, though single readings can be large or run the other way;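 also: % of control where 0% means no effect; miR-21 action dims this reporter so a rising signal means less miR-21 action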
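HeLa cells endogenously expressing miR-21, stably carrying CMV-driven firefly luciferase with a downstream miR-21 binding site, 2000 cells/well. Titrations up to approximately 40 uM, 48 hours; luciferase luminescence read.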
GLA inh pH 4.5: qHTS Assay for Inhibitors of Human alpha-Galactosidase at pH 4.5; Alpha-galactosidase A (Homo sapiens), P06280; purified enzyme, 4-MU-alpha-Gal fluorescence, pH 4.5; activity change, negative = inhibition, % at 105 µM; 230,000 tested, under 10 active; inconclusive = small, poorly fitted or top-dose-only inhibition, or a rising curve; inactive = flat fitted curve, though single readings scatter; no compound was filed as active;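 also: 0% = full activity with enzyme and -100% = basal without enzyme; dose as in the result columns while the protocol names 77 µM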
Target sequence (P06280 whole entry, looked up): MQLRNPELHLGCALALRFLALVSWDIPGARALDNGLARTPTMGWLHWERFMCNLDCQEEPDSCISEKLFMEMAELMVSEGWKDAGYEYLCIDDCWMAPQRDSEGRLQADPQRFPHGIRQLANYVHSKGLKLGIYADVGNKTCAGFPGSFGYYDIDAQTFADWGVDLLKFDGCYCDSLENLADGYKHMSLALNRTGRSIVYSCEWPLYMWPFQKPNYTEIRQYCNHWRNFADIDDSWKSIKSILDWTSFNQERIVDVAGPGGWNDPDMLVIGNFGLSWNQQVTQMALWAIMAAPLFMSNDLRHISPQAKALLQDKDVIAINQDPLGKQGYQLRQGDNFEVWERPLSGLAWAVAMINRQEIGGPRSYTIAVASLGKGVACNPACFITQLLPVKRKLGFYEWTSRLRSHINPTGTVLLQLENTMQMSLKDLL
Rango dissoc inh: qHTS Assay for Inhibitors of RanGTP induced Rango (Ran-regulated importin-beta cargo) - Importin beta complex dissociation; Snurportin-1 (Homo sapiens) + GTP-binding nuclear protein Ran (Homo sapiens) + Importin …; Biochemical FRET Rango-importin beta, RanGTP-induced dissociation; Potency, µM (top dose mostly 46.1 µM), without a hit: top-dose activity change, negative = inhibition; 340,000 tested, 0.071% active; active means falling FRET ratio curve, often poorly fitted, with flat reads before Ran was added; inconclusive means other falling curves, or compound fluorescence or quenching; inactive means flat or rising ratio curve;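 also: potency is read from the fitted curve at half-maximal effect; % of control where 0% means no effect; nearly all actives have a fitted effect of over 45% in size; -100% = wells without RanGTP and RCC1; the record marks most hits as doubtful in a second field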
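Rango/importin beta premix (0.1/0.25 uM final), PBS + 1 mM DTT + 0.02% Tween-20 + 0.1% BSA; cpd 5 min RT; FRET pre-read; + RanGTP-RCC1 (0.6 uM Ran, 2 mM GTP, 0.2 uM RCC1); 45 min RT; FRET post-read, ex 430, em 486/530 nm.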
An asterisk follows results filed as active. A portion of the library, so the mix of outcomes need not match the whole.

How did CCCCCOc1ccc(C(=O)CCC(=O)NC(C)c2ccc(S(N)(=O)=O)cc2)cc1 (centres undefined) do in these assays?
Rango-impB inh: -2.5%; Rango dissoc inh: -16%

What do the screens show for `CSc1ccc(-c2nc(CSCC(=O)NC3CC3)c(C)o2)cc1`?
Rango-impB inh: 0.3%; miR-21 reporter: 7%; Rango dissoc inh: 20%

How did Cc1cccc(C(=O)N/N=C/c2cc(Br)c(Br)o2)c1 do in these assays?
Rango-impB inh: 0.8%; miR-21 reporter: -35%; GLA inh pH 4.5: 1; Rango dissoc inh: 9%

How did COc1ccc(F)cc1CN1CCN(C(=O)CCC(=O)Nc2nnc(C(C)C)s2)CC1 do in these assays?
Rango-impB inh: -4.8%; miR-21 reporter: -2%; GLA inh pH 4.5: -4; Rango dissoc inh: -4%

Results for N/C(=N\OC(=O)c1ccccc1)c1ccccn1 ?
Rango-impB inh: -1.6%; miR-21 reporter: 12%; GLA inh pH 4.5: 2; Rango dissoc inh: -9%

How did CN(C)CCNc1nc2c(c(=O)[nH]c(=O)n2C)n1CCOc1ccccc1 do in these assays?
Rango-impB inh: 0.0%; miR-21 reporter: -2%; Rango dissoc inh: -3%

What do the screens show for `CCS(=O)(=O)Nc1ccc2c(c1)OCO2`?
Rango-impB inh: -2.5%; miR-21 reporter: -15%; GLA inh pH 4.5: 8; Rango dissoc inh: 7%

Results for O=C(OCc1nc2ccccc2[n+]([O-])c1C(=O)c1ccccc1)c1cccnc1 ?
Rango-impB inh: 8.5%; miR-21 reporter: -2%; GLA inh pH 4.5: -3; Rango dissoc inh: -1%

Results for Cc1ccc(OCc2cc(C(=O)N3CCN(CC(=O)NC(C)C)CC3)no2)cn1 ?
Rango-impB inh: -1.1%; miR-21 reporter: 2%; Rango dissoc inh: 9%

What do the screens show for `O=C1Nc2cc(C(=O)NCCCN3CCCC3)ccc2S/C1=C\c1ccccc1`?
Rango-impB inh: -1.9%; miR-21 reporter: -7%; Rango dissoc inh: -5%

What do the screens show for `COc1ccc2nc3n(c(=O)c2c1)-c1ccc(Cl)cc1C(=O)NC3Cc1ccc(O)cc1` (centres undefined)?
Rango-impB inh: -0.6%; Rango dissoc inh: -3%

What do the screens show for `Cc1ccc(OCCC(=O)OC(C)C(=O)Nc2c(C)n(C)n(-c3ccccc3)c2=O)cc1` (centres undefined)?
Rango-impB inh: 3.8%; Rango dissoc inh: 15%

Results for N#Cc1ccc(Oc2cccc(C(=O)O)c2)cc1C#N ?
Rango-impB inh: -4.9%; miR-21 reporter: -3%; GLA inh pH 4.5: -4; Rango dissoc inh: -6%

How did O=C(NCc1nnc(SCC(=O)N2CCc3ccccc32)o1)c1cccs1 do in these assays?
Rango-impB inh: 3.3%; miR-21 reporter: 0%; GLA inh pH 4.5: 0; Rango dissoc inh: 6%

How did Cc1ccc(NCc2ccc(Cl)nc2)c(NCc2ccc(Cl)nc2)c1 do in these assays?
Rango-impB inh: inconclusive; miR-21 reporter: -3%; GLA inh pH 4.5: -22; Rango dissoc inh: inconclusive

Results for Cc1cccc(-c2n[nH]c(=S)n2/N=C/c2ccco2)c1 ?
Rango-impB inh: 0.6%; miR-21 reporter: -2%; GLA inh pH 4.5: 12; Rango dissoc inh: 9%

How did Cc1occc1C(=O)NCCCc1ccccc1 do in these assays?
Rango-impB inh: 3.2%; miR-21 reporter: -30%; GLA inh pH 4.5: -9; Rango dissoc inh: 3%

What do the screens show for `CC(C)[C@H](NC(=O)[C@@H]1Cc2c([nH]c3ccccc23)C2c3ccccc3C(=O)N21)C(=O)NCC1CCCO1` (some centres undefined)?
Rango-impB inh: inconclusive; miR-21 reporter: 10%; Rango dissoc inh: -22%

Results for Cn1c(=O)n(Cc2ccccc2)c(=O)c2c1nc1n2CCS1 ?
Rango-impB inh: -0.3%; miR-21 reporter: 5%; GLA inh pH 4.5: 4; Rango dissoc inh: 10%

What do the screens show for `CCN(CC)P(=O)(Nc1ccc(Br)cc1)c1c(C)nn(CCC#N)c1NC(=O)c1ccc(Cl)cc1` (centres undefined)?
Rango-impB inh: -1.2%; miR-21 reporter: 19%; Rango dissoc inh: 0%

How did CCCOc1ccc(C(=O)CCC(=O)OCC(=O)Nc2ccc(Oc3ccccc3)cc2)cc1 do in these assays?
miR-21 reporter: -2%; GLA inh pH 4.5: -4

What do the screens show for `Cc1nc2ccc(C(=O)N(C)CC3CCCN(CCc4ccc(Cl)cc4)C3)cc2[nH]1` (centres undefined)?
Rango-impB inh: -0.4%; miR-21 reporter: -4%; Rango dissoc inh: 19%

How did Cc1ccccc1CC1(CO)CCCN(C(=O)c2ccc(F)cc2)C1 (centres undefined) do in these assays?
Rango-impB inh: -3.9%; miR-21 reporter: -1%; GLA inh pH 4.5: 0; Rango dissoc inh: -8%

How did O=C(COC(=O)/C=C/c1cccc(F)c1)Nc1ccccc1 do in these assays?
Rango-impB inh: -0.4%; miR-21 reporter: 1%; GLA inh pH 4.5: 6; Rango dissoc inh: -7%

How did O=C(c1ccc(Cl)c(Cl)c1)N1CCC(O)(CN2CCOCC2)CC1 do in these assays?
Rango-impB inh: -0.8%; miR-21 reporter: 0%; GLA inh pH 4.5: 4; Rango dissoc inh: -12%

Results for O=C(c1cc(F)c(F)cc1Cl)N1CCCCC1 ?
Rango-impB inh: 0.4%; miR-21 reporter: 1%; GLA inh pH 4.5: -1; Rango dissoc inh: 24%

What do the screens show for `CC(=O)Oc1cccc(C(=O)Nc2ccc(NC(=O)c3cccs3)cc2)c1`?
Rango-impB inh: 0.2%; miR-21 reporter: -40%; Rango dissoc inh: -15%

What do the screens show for `c1ccc(Cn2ncc3c2ncn2c(-c4ccncc4)nnc32)cc1`?
miR-21 reporter: 1%; GLA inh pH 4.5: 1

Results for CCCCn1c(=N)n(CC(O)COc2cccc(C)c2)c2ccccc21 (centres undefined) ?
Rango-impB inh: 1.3%; miR-21 reporter: 26%; GLA inh pH 4.5: -2; Rango dissoc inh: 6%

What do the screens show for `O=C(CSc1nnc(NC(=O)c2ccc(F)cc2)s1)NCc1ccco1`?
Rango-impB inh: -1.9%; miR-21 reporter: -15%; Rango dissoc inh: 0%

No new results follow: 3 of the compounds above.
What do the screens show for `CCN(CC)P(=O)(Nc1ccc(Br)cc1)c1c(C)nn(CCC#N)c1NC(=O)c1ccc(Cl)cc1` (centres undefined)?
Rango-impB inh: -1.2%; miR-21 reporter: 19%; Rango dissoc inh: 0%

How did CCCOc1ccc(C(=O)CCC(=O)OCC(=O)Nc2ccc(Oc3ccccc3)cc2)cc1 do in these assays?
miR-21 reporter: -2%; GLA inh pH 4.5: -4

What do the screens show for `Cc1nc2ccc(C(=O)N(C)CC3CCCN(CCc4ccc(Cl)cc4)C3)cc2[nH]1` (centres undefined)?
Rango-impB inh: -0.4%; miR-21 reporter: -4%; Rango dissoc inh: 19%

Next part.
How did CN1CCN(/N=C/c2ccc(N(C)c3ccccc3)cc2)CC1 do in these assays?
Rango-impB inh: -4.2%; miR-21 reporter: -20%; GLA inh pH 4.5: 6; Rango dissoc inh: -4%

How did O=C(Cc1ccc(Cl)c(Cl)c1)Nc1cccnc1 do in these assays?
Rango-impB inh: -0.1%; miR-21 reporter: -9%; Rango dissoc inh: 5%

How did CC(OC(=O)CN1C(=O)NC2(CCCC2)C1=O)C(=O)c1ccc(C(C)(C)C)cc1 (centres undefined) do in these assays?
Rango-impB inh: -1.9%; Rango dissoc inh: 7%

Results for O=[N+]([O-])c1cccc(-c2noc(COc3ccccc3)n2)c1 ?
Rango-impB inh: -1.8%; miR-21 reporter: -18%; GLA inh pH 4.5: -5; Rango dissoc inh: -12%

How did COc1ccc(N(C(=O)c2ccco2)C(C(=O)NC2CCCC2)c2ccccc2)cc1 (centres undefined) do in these assays?
Rango-impB inh: 0.5%; miR-21 reporter: 3%; Rango dissoc inh: -1%

Results for CN1CCN(C(CNS(=O)(=O)c2cccs2)c2cccnc2)CC1 (centres undefined) ?
Rango-impB inh: -0.2%; miR-21 reporter: -6%; GLA inh pH 4.5: 0; Rango dissoc inh: 0%

How did O=C(CN1C2CCCC1CC(NC(=O)C1CCCCC1)C2)Nc1ccccc1C(F)(F)F (centres undefined) do in these assays?
Rango-impB inh: -1.1%; miR-21 reporter: 0%; Rango dissoc inh: -9%

What do the screens show for `O=C(NC(Cc1ccccc1)C(=O)O)/C(=C/c1cccc(Br)c1)NC(=O)c1ccco1` (centres undefined)?
Rango-impB inh: inconclusive; miR-21 reporter: -1%; Rango dissoc inh: inconclusive

How did COc1cccc(CNc2ccc(F)c(Cl)c2)c1OC do in these assays?
Rango-impB inh: 3.4%; miR-21 reporter: -10%; GLA inh pH 4.5: -1; Rango dissoc inh: 3%

How did O=C(c1ccccc1-c1ccccc1)N1CCN(c2ccccn2)CC1 do in these assays?
Rango-impB inh: -0.9%; miR-21 reporter: 12%; GLA inh pH 4.5: 4; Rango dissoc inh: -2%

Results for COc1cc(C(=O)NCCc2cn3ccc(C)cc3n2)cc(OC)c1OC ?
Rango-impB inh: 1.0%; miR-21 reporter: -4%; GLA inh pH 4.5: 2; Rango dissoc inh: 15%

What do the screens show for `O=C(NCc1ccccc1)C(c1ccccc1)N(C(=O)c1csnn1)C1CC1` (centres undefined)?
Rango-impB inh: 0.6%; miR-21 reporter: 4%; GLA inh pH 4.5: -3; Rango dissoc inh: 2%

How did CC(=O)c1ccc(N(CC(=O)NC2CCCCC2)C(=O)CNC(=O)c2ccco2)cc1 do in these assays?
Rango-impB inh: -0.2%; miR-21 reporter: -1%; Rango dissoc inh: -9%

Results for COc1cccc(C(=O)Nc2sc3c(c2C(=O)O)CCCC3)c1 ?
Rango-impB inh: -2.0%; miR-21 reporter: 8%; Rango dissoc inh: -7%

How did COc1ccc(CN2CCC(n3nccc3NC(=O)CCOc3ccccc3)CC2)cc1C do in these assays?
Rango-impB inh: 3.3%; miR-21 reporter: 19%; Rango dissoc inh: 2%

How did O=C(c1ccc(Br)o1)N1CC=C(c2ccccc2)CC1 do in these assays?
Rango-impB inh: 0.0%; Rango dissoc inh: 1%

Results for O=C(Nc1ccccc1N1CCOCC1)C1CCN(S(=O)(=O)c2cccc(C(F)(F)F)c2)CC1 ?
Rango-impB inh: -1.1%; miR-21 reporter: 0%; GLA inh pH 4.5: 9; Rango dissoc inh: 15%

What do the screens show for `COCCNC(=S)N1CCN(c2cccc(C)c2C)CC1`?
Rango-impB inh: 0.2%; miR-21 reporter: 2%; GLA inh pH 4.5: -3; Rango dissoc inh: 1%

What do the screens show for `CCCn1nc(C(=O)OCC(=O)c2ccccc2)c2ccccc2c1=O`?
Rango-impB inh: -1.7%; miR-21 reporter: 1%; GLA inh pH 4.5: inconclusive; Rango dissoc inh: inconclusive

Results for Cc1ccc2c(c1C)-c1c(ccc(C)c1C)C(=O)C2=O ?
Rango-impB inh: 29µM*; Rango dissoc inh: 17%

Results for Cc1ccccc1N1Cc2ccccc2C1 ?
Rango-impB inh: 1.4%; miR-21 reporter: 2%; GLA inh pH 4.5: 4; Rango dissoc inh: -3%

How did CS(=O)(=O)CCSc1ncccc1C(=O)NCc1cccs1 do in these assays?
Rango-impB inh: 0.2%; miR-21 reporter: -4%; GLA inh pH 4.5: -2; Rango dissoc inh: 0%

What do the screens show for `Cc1cccn2c(=O)nc(SCC(=O)N3CCC(Cc4ccccc4)CC3)nc12`?
Rango-impB inh: 3.6%; Rango dissoc inh: 14%

Results for O=C(O)c1ccc(SCc2cnc(Cl)s2)cc1 ?
Rango-impB inh: 2.4%; miR-21 reporter: -11%; GLA inh pH 4.5: 1; Rango dissoc inh: 14%

How did CCOC(=O)c1csc(NC(=O)CSc2nnnn2-c2ccc3c(c2)OCCO3)n1 do in these assays?
Rango-impB inh: -1.8%; miR-21 reporter: 8%; GLA inh pH 4.5: 4; Rango dissoc inh: 3%

Source: PubChem
